# FEN1 inh – human FEN1 inhibition | P39748 | Recombinant FEN1 flap cleavage, fluorescence, 15 min | Potency, µM (series often up to 114 µM), for the others: at the highest dose activity change, negative = inhibition, most hits filed as inhibitors | hit rate 0.35% among 390,000 | AID 588795; also: nearly all actives have a fitted effect of over 65% in size
#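 FEN1 at 10 nM preincubated with compounds 15 min at room temperature, then flap DNA substrate added at 50 nM final. Signal read at 0 and 15 min; concentration-response fitted with four-parameter Hill equation.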
# KAT2A inh – GCN5L2 (KAT2A) acetyltransferase inhibition. Q92830. GCN5L2 HAT assay, ThioGlo1 CoA-SH fluorescence. Potency, µM (titrated, usually from 58.9 µM), inactives show top-dose activity change, negative = inhibition, usual class: inhibitors. hit rate 0.21% among 390,000. AID 504327
# Target sequence (Q92830 whole entry, looked up): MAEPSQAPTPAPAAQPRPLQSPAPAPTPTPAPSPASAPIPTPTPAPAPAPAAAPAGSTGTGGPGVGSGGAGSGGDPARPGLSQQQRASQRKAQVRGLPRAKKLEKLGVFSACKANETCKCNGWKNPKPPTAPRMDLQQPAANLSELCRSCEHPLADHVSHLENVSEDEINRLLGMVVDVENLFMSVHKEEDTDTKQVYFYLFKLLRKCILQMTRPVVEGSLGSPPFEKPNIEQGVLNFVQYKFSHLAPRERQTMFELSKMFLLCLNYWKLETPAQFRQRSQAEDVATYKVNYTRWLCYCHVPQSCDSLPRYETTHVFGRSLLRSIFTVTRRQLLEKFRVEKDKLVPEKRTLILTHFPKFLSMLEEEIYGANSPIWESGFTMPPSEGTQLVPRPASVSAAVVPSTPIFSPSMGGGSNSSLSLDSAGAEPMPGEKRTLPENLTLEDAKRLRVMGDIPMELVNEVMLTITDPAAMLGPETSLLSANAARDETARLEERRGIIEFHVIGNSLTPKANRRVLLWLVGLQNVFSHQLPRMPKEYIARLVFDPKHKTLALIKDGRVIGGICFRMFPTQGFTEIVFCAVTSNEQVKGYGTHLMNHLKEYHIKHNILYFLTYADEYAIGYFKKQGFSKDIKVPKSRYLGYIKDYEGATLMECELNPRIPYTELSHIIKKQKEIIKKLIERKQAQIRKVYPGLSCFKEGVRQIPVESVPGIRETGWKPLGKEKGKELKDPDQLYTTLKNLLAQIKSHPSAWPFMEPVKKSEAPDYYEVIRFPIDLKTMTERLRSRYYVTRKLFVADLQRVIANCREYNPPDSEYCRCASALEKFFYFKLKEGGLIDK
#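 Free CoA generated was detected with ThioGlo1 (50uM) fluorescence at Ex340nm/Em540nm, read immediately and after 20 min at room temperature. Enzyme, 20 nM in HEPES pH 7.5 buffer, saw compounds 15 min before adding 75uM H3(1-25) peptide and 70uM acetyl-CoA.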
# * hit, by the source's call; u = inconclusive; x = not tested or not shown; & = joins results of further samples; [ ] = another dose, or the depositor's remark. Calls follow the shape of the dose curve; as a rule, active = well fitted curve in the direction sought with a large enough effect; inconclusive = small, poorly fitted or top-dose-only effect, or another doubt; inactive = no such curve, though single readings can be large; an effect the other way counts as inactive or inconclusive. % is scaled to controls: 0 for no effect and ±100 for the full control effect; potency is read from the fitted curve at half-maximal effect.
SMILES,FEN1 inh,KAT2A inh
COc1ccc(/C=N/NC(=O)c2cccnc2)cc1Cn1nc([N+](=O)[O-])c(Br)c1C,x,-8%
OC(CN1CCN(C(c2ccccc2)c2ccccc2)CC1)c1ccccc1 (configuration not stated),-6%,17%
COc1ccc(Cl)cc1NC(=O)CCc1ccccc1,-17%,-2%
COC(=O)C(=C/C(C)=C/c1cccs1)C(=O)OC,-12%,8%
O=C(Nc1ccc(N2CCCC2)cc1)c1ccccc1[N+](=O)[O-],-4%,1%
CCc1nc(SCc2ccc(OC)cc2)n[nH]1,-17%,-11%
CCCCNC(=O)N1CCN(Cc2cccc(F)c2)CC1,18%,-1%
Cc1cccc(N(C)S(=O)(=O)c2cc3c(cc2C)n(C)c(=O)c(=O)n3C)c1,34%,u
COc1ccc(-n2nc(C(=O)NCC(=O)N3CCC(C(N)=O)CC3)c3ccccc3c2=O)cc1,-14%,-4%
CCn1cc(C(=O)NCCc2ccc(C)cc2)c(=O)c2cc(S(=O)(=O)N(C)C)ccc21,18%&16%,-12%&3%
CNCc1ccc(OCc2ccccc2)c(OC)c1,-2%,2%
O=C(CCN1C(=O)/C(=C/c2ccccc2F)SC1=S)N[C@@H](CO)Cc1ccccc1,-14%,-7%
COc1ccc(Cl)cc1NC(=O)CCNS(=O)(=O)c1cccc2nonc12,13%,-1%
O=C(NCc1ccccc1)c1ccc(S(=O)(=O)Nc2cccc(C(F)(F)F)c2)cc1,-16%,-15%
Cc1ccc(C(=O)Oc2ccccc2N2C(=O)C3CCC(C)CC3C2=O)cc1 (configuration not stated),2%,-20%
COC1C/C(=N\O)C2OC(c3ccccc3)OCC2O1 (configuration not stated),23%,2%
O=C(O)c1ccc2c(c1)C(=O)N(Cc1ccco1)C2=O,-3%,0%
C=CCn1c(NCc2ccccc2OC)nc2ccccc21,-2%,-7%
CCN(C(=O)COC(=O)c1ccc(OC)c(S(=O)(=O)N2CCCc3ccccc32)c1)C1CCS(=O)(=O)C1 (configuration not stated),-5%,-13%
CCN1C(=O)c2n[nH]c(C(=O)OC)c2C1=O,1%,6%
CC1CCCN(C(=O)CCS(=O)(=O)c2ccc3c(c2)n(C)c(=O)c(=O)n3C)C1 (configuration not stated),10%,-9%
CCN(CC)S(=O)(=O)c1ccc(NC2c3ccccc3C(=O)N2Cc2ccco2)cc1 (configuration not stated),1%,-1%
COC(=O)c1ccc(Cl)c(NC(=O)CN2CCC(C)CC2)c1,1%,9%
N#CCC(=O)N/N=C/c1cn(Cc2ccc(Cl)c(Cl)c2)c2ccccc12,-2%,2%
NC(=O)C1=C[C@H](c2coc3ccccc3c2=O)C[C@H](OCCCCO)O1,-1%,-1%

# Next part
SMILES,FEN1 inh,KAT2A inh
CC1=CS(=O)(=O)CC1Sc1nc2ccccc2[nH]1 (configuration not stated),-1%,1%
CCOC(=O)c1ccc(Oc2ccc(C(F)(F)F)cn2)cc1,12%,-9%
CNC(=O)c1csc(Cc2c(Cl)sc3ccc(Cl)cc23)n1,-3%,-24%
Cc1ccsc1/C=N/NC(=O)C(N)=O,16µM*,-15%
CS(=O)(=O)N(Cc1ccccc1)c1ccc(C(=O)Nc2cccnc2)cc1,18%,1%
CC1(C)CC(=O)c2cnc(NC3CC3)nc2C1,4%,20%
c1ccc(-c2ccc3nnnn3n2)cc1,-8%,2%
Cc1ccc(-c2[nH]nc3c2C(c2ccsc2)C(C#N)=C(N)O3)cc1 (configuration not stated),4%,-1%
COc1cccc(OC)c1C(=O)Nc1nc(-c2ccccc2)cs1,10%,-2%
CC1(C)C(=O)NCCN1C(=O)CC1C(=O)NCCN1CC(c1ccccc1)c1ccccc1 (configuration not stated),14%,43%[activator]
CN(Cc1ccc(F)cc1)C(=O)c1cccc(S(=O)(=O)N2CCN(c3ccc(F)cc3)CC2)c1,-8%,-4%
Cc1ccc(NC(=S)N2CCN(S(=O)(=O)c3ccc(C)cc3)CC2)cc1,-4%,3%
Cc1ccccc1Nc1nc(N)nc(CSc2ccc(F)cc2)n1,-14%,-8%
Cc1ccc(-n2c([C@@H]3C[C@H]3c3ccccc3)n[nH]c2=S)cc1,8%,-5%
O=C(CSc1ncnc2c1cnn2-c1ccc(F)cc1)NC1CCCC1,-3%,-1%
Cc1cc(/C=N/NC(N)=S)c(C)n1-c1cccc(Cl)c1,3%,-17%
CCCc1nnc(NC(=O)CCC(=O)N2CCC(C)CC2)s1,0%,-19%
COc1ccccc1C(C)NCC(=O)Nc1c(F)cccc1F (configuration not stated),1%,-2%
Cc1ccc(C(=O)N2CCN=C2SCc2ccc([N+](=O)[O-])cc2)cc1C,0%,-21%
O=C(NCc1ccccn1)c1ccc(Cl)c(S(=O)(=O)N2CCCCC2)c1,1%,-16%
CCOCCn1c(SCc2ccc(F)cc2)nc2c1c(=O)[nH]c(=O)n2C,-4%,-1%
CC(=O)OCC(=O)C1CCC2C3CC=C4CC(O)CCC4(C)C3CCC12C (configuration not stated),-9%,-19%
COc1ccc(C2=NOC(CN3C(=O)c4ccccc4S3(=O)=O)C2)cc1 (configuration not stated),-5%,-6%
O=C(OCCCN=C1NS(=O)(=O)c2ccccc21)C1CC(=O)N(c2ccc(Cl)cc2)C1 (configuration not stated),2%,-3%
Cn1ccnc1C(=O)c1ccc(N)cc1,-2%,-8%

# Continuation:
SMILES,FEN1 inh,KAT2A inh
CC1(C)CC(=O)C2=C(C1)NC(=O)CC2c1cc(F)ccc1F (configuration not stated),7%,-15%
COc1ccc(CCNC(=O)C2CCN(S(=O)(=O)c3ccc4nc5c(c(C(=O)O)c4c3)CCCC5)CC2)cc1OC,25%,-7%
N/C(=N\OC(=O)c1ccco1)c1cccc([N+](=O)[O-])c1,-3%,0%
c1ccn2c(Cc3nnc4ccccn34)nnc2c1,-9%,-1%
O=C(Oc1ccc(N(C(=O)c2ccncc2)S(=O)(=O)c2ccc(Cl)cc2)cc1)c1ccncc1,-13%,-2%
COc1cc(CNC(C)(C)C)ccc1OCC(=O)NC(C)(C)C,-1%,2%
CCOC(=O)c1sc(NC(=O)C(CC)OC(=O)c2ccco2)nc1C (configuration not stated),7%,-6%
COc1cccc(NC(=O)CN(C)C(=O)CC2CC3CCC2C3)c1 (configuration not stated),-4%,u
Cc1cccc(C)c1N(CC(=O)N1CCOCC1)S(C)(=O)=O,12%,-1%
COc1ccc(/C=C/C(=O)c2c(C)cc(C)[nH]c2=O)c2ccccc12,-13%,-8%
CS(=O)(=O)c1cccc(C(=O)Nc2ccc3c(c2)OCCCO3)c1,14%,-2%
COc1ccc(C(C(=O)NC2CCCCC2)N(Cc2ccco2)C(=O)c2snc(C(N)=O)c2N)cc1 (configuration not stated),1%,-12%
O=C(CSc1cn(CCNC(=O)c2ccc3ccccc3c2)c2ccccc12)NCc1ccco1,0%,u
CC(=O)SC1CC(=O)N(c2ccc(C(C)(C)C)cc2)C1=O (configuration not stated),-7%,0%
O=C(O)CCC(=O)C(=O)O (tested in a mixture with another compound),x,4%
CCc1ccc(-c2cc(C(=O)NCc3ccco3)c3ccccc3n2)s1,-14%,-19%
CCOc1ccc(NC(=O)CSC(N)=O)cc1,-2%,-1%
COc1ccc(S(=O)(=O)N2CCN(C(=O)NC3CCCCC3)CC2)cc1OC,-5%,1%
NS(=O)(=O)c1ccc(CCNC(=O)Cc2ccccc2[N+](=O)[O-])cc1,-4%,-5%
Cc1nn(-c2nc3ccccc3s2)c(N)c1Sc1ccc(F)cc1,10%,0%
Cc1ccc(C(=O)CCNc2cccc(Br)c2)o1,-13%,-5%
COc1ccc(S(=O)(=O)NCc2cccnc2)cc1C,-6%,1%
CCN(CC)c1ccc(NC(=S)NCC2CCCO2)cc1 (configuration not stated),0%,-5%
NC(=O)c1cc2cc(Br)ccc2oc1=NCc1ccccc1,1%,-4%
Cc1ccc(C(=O)c2c(NC(=O)c3ccncc3)sc3c2CCCC3)cc1,-20%,0%

# In the list so far, these contain a furan ring, fused or not:
SMILES,FEN1 inh,KAT2A inh
O=C(O)c1ccc2c(c1)C(=O)N(Cc1ccco1)C2=O,-3%,0%
CCN(CC)S(=O)(=O)c1ccc(NC2c3ccccc3C(=O)N2Cc2ccco2)cc1 (configuration not stated),1%,-1%
N/C(=N\OC(=O)c1ccco1)c1cccc([N+](=O)[O-])c1,-3%,0%
CCOC(=O)c1sc(NC(=O)C(CC)OC(=O)c2ccco2)nc1C (configuration not stated),7%,-6%
COc1ccc(C(C(=O)NC2CCCCC2)N(Cc2ccco2)C(=O)c2snc(C(N)=O)c2N)cc1 (configuration not stated),1%,-12%
O=C(CSc1cn(CCNC(=O)c2ccc3ccccc3c2)c2ccccc12)NCc1ccco1,0%,u
CCc1ccc(-c2cc(C(=O)NCc3ccco3)c3ccccc3n2)s1,-14%,-19%
Cc1ccc(C(=O)CCNc2cccc(Br)c2)o1,-13%,-5%

# Remaining list, next part.
SMILES,FEN1 inh,KAT2A inh
CCCc1c(C)nn(-c2ncccc2[N+](=O)[O-])c1C,-15%,0%
O=C(COc1c(F)c(F)c(C(F)(F)F)c(F)c1F)Nc1ccc(N2CCOCC2)c(Cl)c1,-9%,-20%
Cc1cc(NCc2ccc3c(c2)OCO3)n2nc(C)nc2n1,-14%,-3%
CC(C)COc1ccc(Cc2cnc(N)nc2N)cc1,-17%,-5%
CC1=NC(C#N)=C(C#N)NC(C)(C)C1,0%,-5%
COC(=O)C1(CO)NC(c2ccc(C)cc2)C2C(=O)N(c3ccccc3)C(=O)C21 (configuration not stated),0%,-6%
COC(=O)CSc1nnc(-c2sc3cc(OC)ccc3c2Cl)n1C,-4%,-24%
Cc1cc(C)nc(N2C(=O)CC(Cc3ccccc3)C2=O)n1 (configuration not stated),5%,1%
O=C(CCNS(=O)(=O)c1ccccc1)N1CCCCCCC1,0%,-6%
CCSC1=C(C#N)C(CC(C)C)C2=C(CCCC2=O)N1 (configuration not stated),17%,-1%
O=C(Cc1ccccc1[N+](=O)[O-])N1CCOCC1,-10%,0%
Cc1ccc2c(CC(=O)NCc3ccco3)coc2c1C,9%,u
O=C(CSc1ccc(-c2cccs2)nn1)c1cccs1,-6%,-8%
COc1ccc(S(=O)(=O)Nc2ccc(S(=O)(=O)N(C)C)cc2)cc1[N+](=O)[O-],2%,-2%
Cc1ccccc1N1CCN(S(=O)(=O)c2ccc3oc(=O)ccc3c2)CC1,6%,-8%
O=C(Nc1ccc2c(c1)OCO2)N1CCOCC1,0%,1%
COc1ccccc1N1CCN(CC(=O)c2c[nH]c3ccccc23)CC1,14%,-13%
COc1ccc(S(=O)(=O)N2CCC(C(=O)NCCC(=O)Nc3ccc(Cl)cc3)CC2)cc1,25%,0%
Clc1ccc(CO/N=C/c2cccs2)cc1,3%,-3%
Cc1cccc(/C=C/c2ccccc2)n1,x,-9%&-18%
CCOC(=O)/C(C(N)=NC)=C(\O)c1ccccc1,-4%,-2%
c1ccc(-c2nccc(-c3ccc4c(c3)OCO4)n2)cc1,3%,-12%
O=C(O)c1ccccc1OCCN1CCCC1=O,4%,2%
COc1ccc(N(C)C(=O)CCC(=O)Nc2ccc3nc(N4CCOCC4)cc(C)c3c2)c(OC)c1,-7%,-8%
CCn1cc(C(=O)NNC(=O)c2ccc(Cl)cc2)c(=O)c2ccc(C)nc21,x,-7%

# Compound profiles, as listed above.
# Results for `O=C(CSc1ccc(-c2cccs2)nn1)c1cccs1` → FEN1 inh = -6%; KAT2A inh = -8%
# Results for `CCCc1c(C)nn(-c2ncccc2[N+](=O)[O-])c1C` → FEN1 inh = -15%; KAT2A inh = 0%

# (continued)
SMILES,FEN1 inh,KAT2A inh
CC1CN(S(=O)(=O)c2cccc(C(F)(F)F)c2)CC(C)O1 (configuration not stated),6%,-1%
O=C(NCc1ccco1)c1ccc(-c2csnn2)cc1,-8%,2%
CCOC(=O)c1ccc(N2C(=O)CC(N(C)Cc3ccccc3)C2=O)cc1 (configuration not stated),-9%,-6%
O=C(Nc1ncc(Cl)cc1Cl)c1c(F)cccc1Cl,1%,-9%
O=C(O)CS(=O)(=O)c1ccc(C(F)(F)F)cn1,-4%,7%
O=C(CN1C(=O)c2ccccc2S1(=O)=O)c1ccccc1Cl,x,-3%
Cc1cccc(C)c1OCc1nnc(SCC(=O)Nc2ccc(N3CCOCC3)cc2)o1,4%,3%
O=C(/C=C/c1ccccc1[N+](=O)[O-])NC1CCCC1,-11%,-8%
CN1/C(=C\C(=O)C[n+]2cccc(Br)c2)C(C)(C)c2ccccc21,8%,-6%
CCOc1ccc(C(=O)Nc2cccc(C)n2)cc1,-5%,4%
Cc1ccc(NC(=O)c2cc(N3C(=O)CCC3=O)ccc2N2CCCCC2)cc1,21%,27%
COc1ccc(C(C)NC(=O)c2ccccc2Cl)cc1OC (configuration not stated),-1%,-1%
N[C@H](CO)C(=O)O,x,3%&3%&15%
CCOC(=O)c1cnc(SCC(=O)N2CCN(C(=O)c3ccco3)CC2)nc1N,7%,2%
CC1(C)C=Cc2c(c3ccccc3[nH]c2=O)O1,6%,-5%
CCOc1cc(C(=O)NN=C2CCCC2)cc(OCC)c1OCC,11%,1%
CC(=O)Oc1ccc(NC(=O)C2CCCCC2)c(C(=O)O)c1,-8%,-3%
NC(=O)CC12CC3CC(C1)CC(CC(N)=O)(C3)C2,4%,-2%
CC(Sc1ccc(S(=O)(=O)N2CCCCCC2)cn1)C(N)=O (configuration not stated),8%,-8%

# Screens deposited in PubChem by National Center for Advancing Translational Sciences (NCATS).

# A portion of the library; most or all hits stand in other tables.
